VDR inhibitor: Inhibitors of the vitamin D receptor (VDR): qHTS. Vitamin D3 receptor (Homo sapiens), P11473. VDR-SRC2-3 peptide fluorescence polarization, 2 h. Potency, µM, inactives show max response, negative = inhibition, hits mostly inhibitors. actives 0.93% (n = 400,000). AID 504847, 2011; active = well fitted inhibition curve with a large enough effect; inconclusive = small, poorly fitted or top-dose-only effect, or another doubt; inactive = no such curve, though single readings can be large or run the other way; also: series mostly up to about 120 µM
Target sequence (P11473 whole entry, looked up): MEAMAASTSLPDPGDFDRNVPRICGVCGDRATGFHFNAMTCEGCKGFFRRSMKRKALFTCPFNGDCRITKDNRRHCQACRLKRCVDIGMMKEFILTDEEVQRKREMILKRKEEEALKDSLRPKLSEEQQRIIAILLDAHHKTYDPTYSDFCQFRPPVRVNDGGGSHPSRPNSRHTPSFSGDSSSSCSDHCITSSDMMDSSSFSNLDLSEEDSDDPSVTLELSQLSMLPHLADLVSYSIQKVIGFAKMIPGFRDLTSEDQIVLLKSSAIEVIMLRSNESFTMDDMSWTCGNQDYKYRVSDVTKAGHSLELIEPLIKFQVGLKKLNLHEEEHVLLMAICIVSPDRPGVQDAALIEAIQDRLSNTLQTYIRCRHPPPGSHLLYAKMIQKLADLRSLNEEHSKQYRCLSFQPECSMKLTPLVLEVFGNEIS
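FP read-out; VDR + SRC2-3 coactivator peptide; 23 nl compound by pintool; 2 h RT incubation; reagents held at 4 deg C, protected from light.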
The depositor's hits bear a star; ? = inconclusive; & = joins results of further samples; ! = a repeat was not active. % is scaled to controls: 0 for no effect and ±100 for the full control effect; potency is read from the fitted curve at half-maximal effect. An excerpt, so the mix of outcomes need not match the whole.

SMILES	VDR inhibitor
Cc1ccc(C(C)C)cc1OCCCCN1CCCC1	6%
C/C=C/c1ccc(OCC(=O)Nc2ccc(OC)c(OC)c2)c(OC)c1	?
COc1ccccc1CN(CC(=O)NCc1ccc2c(c1)OCO2)C(=O)c1csnn1	-14%
CC(Sc1nc2ccccc2s1)C(=O)N(C)Cc1ccccc1 (stereo unspecified)	?
CC1(C)CC(=O)C(C=NCc2ccc3c(c2)OCO3)=C(O)C1	14%
Nc1cc(=O)[nH]c(SCC(=O)N2CCCc3ccccc32)n1	4%
Cc1c(NC(=S)NC(=O)c2ccc(-c3ccc(Cl)cc3)o2)cccc1C(=O)O	?
CCCNC(=O)c1ccccc1NC(=O)C1=CSCCO1	-16%
COCCCNC(=O)c1cn(Cc2c(F)cccc2Cl)nn1	1%
COc1ccc(Cl)cc1NC(=O)COC(=O)C1CCCCC1	-12%
Cc1ccc(NC(=O)CN(C)S(=O)(=O)c2cnc[nH]2)c(C)c1	9%
Cc1cc(NC(=O)/C(C#N)=C/c2ccc(-c3ccc(SC(F)F)cc3)o2)n(-c2ccccc2)n1	6%
O=C(NCCO)/C(=C\c1ccc2c(c1)OCO2)NC(=O)c1ccc(Br)cc1	-19%
CCCN1CCN(C(=O)CCNC(=O)Cn2cnc3ccccc3c2=O)CC1	-22%
Cn1ccnc1C1CCCCN1Cc1nc(-c2ccc(Cl)cc2)no1 (stereo unspecified)	-1%
COC(=O)c1ccc(C(=O)OC)c(NC(=O)CN(C)Cc2ccccc2)c1	-18%
CC1(C)NC(=O)N(CCCC(=O)Nc2ccc(C(F)(F)F)cc2)C1=O	0%
CCC(Cc1ccccc1)NC(=O)Cn1ncc2c3ccccc3n(Cc3ccc(F)cc3)c2c1=O (stereo unspecified)	5%
CC(O)CNC1c2ccccc2CC1O (stereo unspecified)	8%
O=C(c1ccc(NS(=O)(=O)c2cccc(C(F)(F)F)c2)cc1)N1CCCC1	-12%
Cn1cc([N+](=O)[O-])c(C(=O)N2CCCCCC2)n1	23%
C[C@]12CCC(=O)C=C1CCC1C2CC[C@@]2(C)C1CCC21OCCO1 (stereo partly specified)	-1%
CCn1c(SCC(=O)Nc2nnc(C)s2)nc2c(c1=O)SC(C)C2 (stereo unspecified)	-8%
CCN(C(=O)Cn1ccc(C(F)(F)F)n1)c1c(N)n(Cc2ccccc2)c(=O)[nH]c1=O	-8%
CCOc1ccc(S(=O)(=O)n2ccc(C)n2)c2ccccc12	-13%
CCc1ccccc1NC(=O)c1sc2nc3c(cc2c1N)CN(Cc1ccccc1)CC3	-9%
N#C/C(=C\c1coc2ccccc2c1=O)C(N)=S	?
CCn1c(SCC(=O)N/N=C(\C)c2ccncc2)nnc1-c1ccccc1	2%
Cc1ccc(-c2nnc3ccc(SCC(=O)c4ccccc4)nn23)cc1	1%
Cc1cc(C(=O)OCC(=O)N2CCN(c3ccccc3)CC2)c2ccccc2n1	13%
Cc1ccc(C2/C(=C(/O)c3ccc(Br)cc3)C(=O)C(=O)N2Cc2ccco2)o1 (stereo unspecified)	-7%
CC(=O)Nc1ccc(S(=O)(=O)N2CCN(c3cccc(C)c3C)CC2)cc1	10%
CC(=O)Nc1ccc(C(=O)CSc2nccc(=O)[nH]2)cc1	8%
CCc1ccccc1NS(=O)(=O)c1ccc2[nH]cc(C(=O)N3CCCCC3)c(=O)c2c1	-13%
N#C/C(=C\c1ccc(-c2ccccc2)cc1)c1nc(-c2ccco2)cs1	-11%
COc1ccccc1-c1nc2cc3ccccc3cc2nc1-c1ccccc1OC	-3%
Cc1ccccc1OCC(=O)Nc1nc(-c2ccncc2)cs1	-12%
CCC(=Nc1ccc(N)cc1)C1=C(O)C(C(=O)OC)C(C)(C)CC1=O (stereo unspecified)	-18%
Cc1cccc2sc(NC(=O)CNS(=O)(=O)c3ccc(Br)s3)nc12	-3%
COc1ccc(N(CCC#N)S(=O)(=O)c2cccc3nsnc23)cc1	5%
COc1ccc(/C=C(\C)C(=O)c2c(C)cc(C)[nH]c2=O)cc1	-2%
CC1=Nc2cc(C(=O)NCCCOC(C)C)ccc2Sc2ccccc21	15%
CCCCNc1cc(NC2CCCCC2)c2c3c(onc13)-c1ccccc1C2=O	?
O=C(COC(=O)C1(c2ccc(F)cc2)CCCC1)NCc1ccc2c(c1)OCO2	15%
Cc1noc(C)c1COc1ccccc1C(=O)N(C)CC(=O)Nc1ccc(F)c(F)c1F	-5%
O=C(OCCN1CCOCC1)c1ccc2c(c1)OCCO2	3%
CCc1cccc(CC)c1-n1c(SCC(=O)N2CCCc3ccccc32)nc(O)cc1=O	-2%
CCN1CCN(CC2COc3ccccc3O2)CC1 (stereo unspecified)	3%
O=C(NCC1(N2CCCCC2)CCCCC1)c1cccc(S(=O)(=O)Nc2ccccc2Cl)c1	16%
CCOC(=O)c1cc2c(=O)n3ccccc3nc2n(Cc2ccco2)c1=NC(=O)c1ccccc1OC	56µM*!

Additional compounds.
SMILES	VDR inhibitor
CCN1C(=O)/C(=C2\SC(=S)N(c3c(C)n(C)n(-c4ccccc4)c3=O)C2=O)c2ccccc21	-8%
CCOC(=O)C1C(=O)NC(N2CCc3ccccc32)=NC1c1ccccc1 (stereo unspecified)	11%
COc1ccccc1-c1nc(S(=O)(=O)c2ccccc2)c(N2CCC(C)CC2)o1	-21%
Cc1ccc(S(=O)(=O)NCC(=O)N(CC(=O)NCC2CCCO2)c2ccc(Cl)cc2)cc1 (stereo unspecified)	-13%
COCCNC(=O)CCn1c(=O)oc2ccccc21	0%
Cc1ccc(-c2nn3c(=O)c(C)nnc3s2)cc1	-12%
Cn1c(SCC(=O)Nc2cccc(F)c2)nnc1-c1cccnc1	-2%
CCc1nnc(SCC(=O)Nc2ccc(OC)c(OC)c2)c2cc3occc3n12	10%
NCc1ccccc1COc1ccccc1	11%
CSc1ccc(C(=O)C2CCCN(C(=O)CCCn3cncn3)C2)cc1 (stereo unspecified)	2%

Among those listed so far, these contain a thiophene ring, fused or not.
SMILES	VDR inhibitor
CCc1ccccc1NC(=O)c1sc2nc3c(cc2c1N)CN(Cc1ccccc1)CC3	-9%
Cc1cccc2sc(NC(=O)CNS(=O)(=O)c3ccc(Br)s3)nc12	-3%

The list goes on.
SMILES	VDR inhibitor
O=C(CN1CCN(Cc2ccccc2Cl)CC1)N/N=C/C=C\c1ccccc1[N+](=O)[O-]	-8%
O=C(Nc1nc(=O)n(C(=O)C2CC2)s1)c1ccccc1	50µM*
O=C(c1ccc2c(=O)n(-c3ccccc3)c(=O)[nH]c2c1)N1CCCCC1	9%
Cc1cc(C(=O)CCC(=O)Nc2ccc(S(N)(=O)=O)cc2)c(C)s1	-20%
CC(C)N(C(C)C)S(=O)(=O)c1ccc(Cl)nc1	-17%
CCCOc1ccc(CCC(=O)N/N=C/c2ccncc2)cc1	?
Cc1cccnc1NC(=O)c1ccc(S(=O)(=O)N2CCC(C)CC2)cc1	4%
S=c1[nH]nc(-c2ccccn2)n1/N=C/c1cccc(Cl)c1	-8%
COc1ccccc1N1CCN(CC(=O)Nc2sccc2C#N)CC1	-11%
O=C(NCC(c1cccnc1)N1CCc2ccccc2C1)C(=O)Nc1ccccc1F (stereo unspecified)	23%
COc1ccc(S(=O)(=O)NCC(=O)N(CC(=O)NCC2CCCO2)c2cc(C)ccc2C)cc1 (stereo unspecified)	-3%
Oc1ccccc1C=NCCCCCCN=Cc1ccccc1O	-1%
O=C(O)c1ccc(Cl)c(S(=O)(=O)N(Cc2ccccc2)c2ccccc2Cl)c1	-11%
COc1ccc(N2CC(C)Cn3c2nc2c3c(=O)n(Cc3ccc(F)cc3)c(=O)n2C)c(OC)c1 (stereo unspecified)	-6%
C=CCc1ccccc1OCCOc1ccc([N+](=O)[O-])cc1/C=N/NC(N)=O	-20%
O=C1CCC/C(=N\NC(=O)c2ccc(CSc3cccc4cccnc34)cc2)C1	-4%
COc1ccccc1/C=C(/C(=O)OCC(=O)Nc1cc(C)ccc1C)c1ccccc1	24%
Cc1ccc(C(=O)NCCc2ccccc2)cc1	-3%
COc1cccc(CNCCSc2nnnn2C)c1	-4%
CC(C)c1ccc(NC(=O)Cn2c(=O)n(CCc3ccccc3)c(=O)c3ccccc32)cc1	3%
Cc1c(Br)c(C(F)(F)F)nn1CC(=O)NCCCn1ccnc1	1%
Cc1ccc(C(C[N+](=O)[O-])c2c(N)n(C)c(=O)n(C)c2=O)cc1 (stereo unspecified)	79µM*
CC(=O)Nc1ccc(NC(=O)c2ccco2)cc1	10%
CN(CC(=O)NCc1ccco1)S(=O)(=O)c1ccc2c(c1)c(=O)n(C)c(=O)n2C	-9%
CCCC(=O)Nc1c2c(nn1-c1ccccc1)CSC2	13%
O=S(=O)(NCc1ccccc1)c1ccc2[nH]c3c(c2c1)CCCCC3	9%
CCN(CC)C(=O)COc1ccc(S(=O)(=O)N2CCCC2)cc1	0%
O=C(c1ccco1)N1CCN(C(=O)c2ccc(-c3ccccc3Cl)o2)CC1	-10%
NNS(=O)(=O)c1ccc2c(c1)Cc1cc(S(=O)(=O)NN)ccc1-2	1%
O=C(Cc1csc(-c2ccccc2)n1)NCc1cccs1	-1%
CSc1ccc(Cl)c(C(=O)Nc2ccc(Cl)cn2)c1	22%
Cc1cc(C(=O)NNC(=O)c2ccc(C)s2)c(C)o1	-10%
COc1cc(NC(=O)CSc2nnc(-c3ccncc3)o2)cc(OC)c1OC	-13%
CCOc1ccc2nc(NC(=O)CSc3nc4cccnc4n3C)sc2c1	-17%
Cc1cccc(OC(C)C(=O)Nc2cc(Cl)ccc2-n2cncn2)c1 (stereo unspecified)	3%
Cc1ccc(Cl)cc1NC(=O)c1ccc(-c2nc(CSc3ccccc3)c(C)o2)cc1	17%
CCCCOC(=O)C[N+](C)(C)CCOC1CC2CCC1(C)C2(C)C (stereo unspecified)	-1%
CCN(CC)S(=O)(=O)c1cccc(C(=O)N/N=C/c2cccc(O)c2O)c1	0%
CCN(CC)C(=O)C1CCCN(C(=O)Nc2ccc(NC(=O)N3CCCC(C(=O)N(CC)CC)C3)cc2)C1 (stereo unspecified)	4%
CC(=O)Nc1ccc(S(=O)(=O)N2CCc3ccccc3C2CC(=O)O)cc1 (stereo unspecified)	-28%
O=C(CNC(=O)c1ccc(Br)cc1)c1ccc(Br)cc1	-8%
Cc1ccc(Cn2cc3c(n2)-c2c(oc(C(=O)Nc4ccc(F)cc4F)c2C)CC3)cc1	-7%
O=C(CN1C(=O)NC2(CCOc3ccccc32)C1=O)c1ccc(Br)cc1 (stereo unspecified)	-15%
Cc1nnc(N2CCN(c3ccc(Cl)cc3)CC2)c2c1nnn2Cc1ccc(F)cc1	5%
O=C(O)Cn1cc(/C=N/NC(=O)c2cc3cc(Br)ccc3o2)c2ccccc21	14%
CCCCN(c1ccccc1)c1ncnc2nc[nH]c12	-9%
O=C(Nc1ccc(NC(=S)NC(=O)c2cccs2)cc1)c1ccccc1	-13%
O=C1NCC(O)=C1C=Nc1ccccc1O	-2%
CC1C(c2ccccc2)N(C)C(c2ccccc2)CC1(O)c1ccccc1 (stereo unspecified)	-10%
O=C(Nc1ccc2c(c1)OCCO2)c1ccc(Br)o1	-2%

7 compounds already listed, ordered by molecular weight, ascending.
SMILES	VDR inhibitor
O=C(Nc1ccc2c(c1)OCCO2)c1ccc(Br)o1	-2%
CC1C(c2ccccc2)N(C)C(c2ccccc2)CC1(O)c1ccccc1 (stereo unspecified)	-10%
O=C(CNC(=O)c1ccc(Br)cc1)c1ccc(Br)cc1	-8%
O=C(CN1C(=O)NC2(CCOc3ccccc32)C1=O)c1ccc(Br)cc1 (stereo unspecified)	-15%
Cc1ccc(Cn2cc3c(n2)-c2c(oc(C(=O)Nc4ccc(F)cc4F)c2C)CC3)cc1	-7%
Cc1nnc(N2CCN(c3ccc(Cl)cc3)CC2)c2c1nnn2Cc1ccc(F)cc1	5%
O=C(O)Cn1cc(/C=N/NC(=O)c2cc3cc(Br)ccc3o2)c2ccccc21	14%

The list continues:
SMILES	VDR inhibitor
O=C(CSc1ncccn1)Nc1ccc2c(c1)OCO2	11%
O=C1CN(C(=O)COC(=O)Cc2ccccc2F)c2ccccc2N1	-4%
COc1cc(C2NC(=O)NC(C)=C2C(=O)Nc2cc(C)cc(C)c2)ccc1O (stereo unspecified)	8%
CC1(C)CC(=O)c2cnc(NC(=O)C3CCCC3)nc2C1	-8%
Cc1csc(CCc2nc(C)cs2)n1	5%
CCOc1cc2c(cc1OCC)C(c1ccc(C(=O)O)cc1)NCC2 (stereo unspecified)	0%
Cc1onc(-c2ccccc2Cl)c1C(=O)NC(=S)Nc1ccc(C(C)(C)C)cc1	-2%
COc1ccccc1NC(=O)c1ccc2nc(C)c(C)nc2c1	-9%
O=C(CCCN1C(=O)c2cccnc2C1=O)Nc1ccc(F)cc1Cl	9%
O=C(Cc1ccccc1F)Nc1ccccc1-c1ccccc1	-10%

A section from the list above, as a working copy:
SMILES	VDR inhibitor
O=C(CCCN1C(=O)c2cccnc2C1=O)Nc1ccc(F)cc1Cl	9%
O=C(Cc1ccccc1F)Nc1ccccc1-c1ccccc1	-10%

Following part.
SMILES	VDR inhibitor
COc1ccc(C2CC(=O)c3c(O)cc(O[C@H]4OC(COC5OC(C)C(O)C(O)[C@@H]5O)C(O)C(O)C4O)cc3O2)cc1O (stereo partly specified)	-12%
CCOc1ccccc1N(CC(=O)Nc1cccnc1)S(C)(=O)=O	2%
COc1ccc(N2CCN(C(=O)CCC(=O)N3CCOc4ccc(C)cc43)CC2)cc1	4%
COc1ccc(CN(C)CC(=O)Nc2ccc(SC(F)F)cc2)cc1OC	-19%
Cc1ccc(C(=O)NCC(=O)OCC(=O)Nc2cc(S(=O)(=O)N3CCOCC3)ccc2C)cc1	3%
CCOc1ccccc1-n1c(C)nc2cc(C(=O)O)ccc21	0%&-27%
CC1CCN(c2c(NCC3CCC(C(=O)NCc4ccccc4Cl)CC3)c(=O)c2=O)CC1 (stereo unspecified)	-12%
O=[N+]([O-])c1ccc(S(=O)(=O)N2CCN(c3nc(-c4ccccc4)nc4ccccc34)CC2)cc1	-9%
